Screening data as filed in PubChem.
NPYLR7 agonist: mosquito NPYLR7 agonism; HEK293T NPYLR7/Galpha15, GCaMP6s calcium fluorescence; activation, % at 10 µM; 0.15% of 270,000 active; AID 1259423; in the data active = activation above about 40%;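 note: 0% = vehicle and 100% = reference agonist at the receptor; some compounds past the cut are filed as inactive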
NPYLR7 agonist max-min: second read-out of NPYLR7 agonist, no call of its own (marks repeat the call); activation, %; measured here: Max-Min RFU normalised activation; some inactives read as strong as hits;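 span of the calcium signal over five minutes; 0% = vehicle and 100% = native peptide agonist; compound fluorescence can raise it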
Active calls of the source: *; & = joins results of further samples.

molecule	NPYLR7 agonist max-min	NPYLR7 agonist
COc1cc(-c2ccc(=O)n(CC(=O)Nc3ccccc3C(F)(F)F)n2)cc(OC)c1OC	1	1
COc1ccc(NC(=O)CC2CCCC2)c(S(=O)(=O)N2CCCCC2)c1	-1	1
Cc1nnc(SCCn2c(N3CCN(c4ccccc4)CC3)nc3c2c(=O)n(C)c(=O)n3C)s1	-1	1
Cc1nc(C)c(C(=O)NC2CCN(C(=O)C3CCCC3)C2)o1 (stereo unspecified)	-1	0
CC(C)(C)c1ccc(C(=O)CC2(O)C(=O)Nc3ccccc32)cc1 (stereo unspecified)	16	19
CC(=O)N1CCc2c(sc(NC(=O)/C=C/c3ccccc3)c2-c2nc3ccccc3s2)C1	8	7
CCn1cc(C(=O)NCCCOC)c2nn(-c3ccccc3)c(=O)c-2c1	2	2
COc1cccc(Oc2cc(N3CCNCC3)ncn2)c1	-14	-13
Cc1ccc(S(C)(=O)=O)cc1NC(=O)NOCc1ccccc1	-3	0
O=C(NC1CCCc2c1cnn2-c1ccc(F)cc1F)c1cnc(CN2CCCC2)s1 (stereo unspecified)	-3&10	1&18
CCOC(=O)C1=C(C)N(c2ccc3c(c2)OCCCO3)C(=O)NC1c1csnn1 (stereo unspecified)	-2	-1
CC(NC(=O)N(C)C1CC1)c1noc(Cc2ccccc2)n1 (stereo unspecified)	0	-1
O=C(COc1cc(O)c2c(=O)cc(-c3ccccc3)oc2c1)c1ccc(Cl)cc1	-11	-4
CC(C)Oc1cnn(-c2ccc(Cl)cc2)c(=O)c1Nc1cccc(C(=O)NCc2ccc(F)cc2)c1	-4	-8
CC1CCN(S(=O)(=O)NCCS(=O)Cc2ccccc2)CC1 (stereo unspecified)	-6	-5
N#Cc1ccc(CSc2ccc3c(c2)OCCO3)cc1	2	0
O=C1CC2CS(=O)(=O)CC2N1c1ccc(OC(F)F)c(Cc2ccccc2)c1 (stereo unspecified)	-7	-5
Cc1ccccc1C1c2ccsc2CCN1C(=O)CN(C(=O)c1cccs1)C1CCCCC1 (stereo unspecified)	7	14
COC(=O)c1c(NC(=O)C2C3C=CC(C3)C2C(=O)O)sc2c1CCCCC2 (stereo unspecified)	2	3
O=C(O)C(=Cc1ccc(-c2cccc([N+](=O)[O-])c2)o1)C(=O)O	8	9
CC(=O)Nc1ccc(C(=O)NC2CCC3CCCCC3C2)cc1 (stereo unspecified)	4	4
O=C(COc1ccc(Cl)cc1Cl)Nc1ccc(Nc2cc(-n3cccn3)ncn2)cc1	-11	-6
COCCCCNC(=O)Nc1ccc(C(=O)N2CCCCC2C)cc1 (stereo unspecified)	2	3
C=CCNC(=O)C(NC(=O)c1cccc(OC)c1)C1CCN(C(=O)c2cccs2)CC1 (stereo unspecified)	-1	-9
CCN1C(=O)NC(c2cccc(Oc3ccccc3)c2)C2=C1CN(C(C(=O)NCCCOC)C(C)C)C2=O (stereo unspecified)	2	-2
c1ccc(Nc2nc(NCCN3CCOCC3)nc3nccnc23)cc1	4	2
COc1ccc(-c2ccc(=O)n(CCNS(=O)(=O)c3ccc4c(c3)CCCC4)n2)cc1	4	3
CCOc1ccc(-n2c(C(C)N(CCc3ccccc3)C(=O)COc3ccc(Cl)cc3)nc3ccccc3c2=O)cc1 (stereo unspecified)	-11	-1
CCCNC(=O)c1cncn1-c1ccc(-c2cc(C(F)(F)F)cc(C(F)(F)F)c2)cc1	-1	1
CCn1ncc(Cl)c1C(=O)NC(c1nccn1C)C1CC1 (stereo unspecified)	0	4
CCC(C(=O)Nc1cccc(C2SCC(=O)N2c2ccc(F)cc2F)c1)c1ccccc1 (stereo unspecified)	-2	-9
COCCCNc1nc2ccccn2c(=O)c1C=C1SC(=S)N(C(C)C)C1=O	10	4
COc1cccc(C(=O)Nc2c(-c3cccc(OC)c3)nc3ccccn23)c1	-8	-15
c1ccc(Cc2n[nH]c(Cn3nc4ccccc4n3)n2)cc1	-7	-3
OC[C@H]1CCN(Cc2c(-c3ccc(F)cc3)nc3ccccn23)C[C@H]1O	1	5
Cc1ccc(S(=O)(=O)Nc2ccccc2C(=O)NCc2cccc(Cl)c2)cc1	7	-3
CCc1nnsc1C(=O)N1CCCOc2c(cccc2OC)C1	15	0
CCc1ccc(S(=O)(=O)NCCn2nc(-c3cccnc3)ccc2=O)s1	0	12
CN1CCCC(Cn2c(=O)n(C3CCCCC3)c3ccc(C(=O)O)cc32)C1 (stereo unspecified)	-4	13
FC(F)(F)c1cc(/C=C/c2cccs2)no1	1	2
CCc1ccc(C(=O)NNC(=O)C(NS(=O)(=O)c2cccs2)C(C)C)cc1 (stereo unspecified)	9	3
O=C(NC1CCCCC1)c1cc2n(n1)CCN(Cc1cccc(F)c1)C2=O	26	17
CCCN(CC(=O)Nc1cc(-c2ccccc2)nn1-c1ccc(C)cc1)S(=O)(=O)c1ccc(Cl)c([N+](=O)[O-])c1	6	0
O=C(COc1cccc2c1CCNC2=O)Nc1ccc(Cl)c(Cl)c1	4	6
CCOc1ccc(C(C)(C)C)cc1S(=O)(=O)n1cccn1	23	-1
CCn1c(=O)c2c(nc3n(CCCl)c(C)cn23)n(C)c1=O	-8	-8
Cc1cc(C)cc(N(C)CC(=O)Nc2cc(C(C)(C)C)no2)c1	1	5
Cc1ccc(CC2=CN3CCS(=O)(=O)N=C3S2)cc1	11	12
O=C(c1ccc(=O)[nH]c1)N1CCOC(c2ccc(F)cc2)C1 (stereo unspecified)	2	3
Cc1nc(C)c(C(=O)NCCn2ncc3c(N4CCN(c5ccc(F)cc5)CC4)ncnc32)s1	-2	0

(cont.)
molecule	NPYLR7 agonist max-min	NPYLR7 agonist
CS(=O)(=O)N1N=C(c2ccco2)CC1c1ccc(F)cc1 (stereo unspecified)	-3	-2
Cc1ccc(-c2n[nH]c(CCc3ccccc3)n2)cc1N1CCNC1=O	0	4
O=C(NNC(=O)c1ccccc1O)c1cc2ccccc2s1	10	6
CCCCn1c(=O)[nH]c(=O)c2c1nc(CNCCC(C)C)n2C	-4	-1
COCCC(=O)N1CCc2[nH]nc(C(c3ccccc3)c3ccccc3)c2C1	6	11
CCc1nc2ccc(C(=O)N(C)Cc3ccccc3)cn2c1N(C)Cc1cccs1	-13	-3
Cc1ccccc1CN(CCC(C)C)CC(O)COCC(C)C (stereo unspecified)	16	18
CC(=O)c1ccc(S(=O)(=O)N2CCC(C(=O)N3CCCC3c3ccccc3)CC2)cc1 (stereo unspecified)	12	0
COc1cccc(NC(=O)N2CCN(C(c3ccc(F)cc3)c3ccc(F)cc3)CC2)c1	-16	-15
CC(=O)NCCNS(=O)(=O)C1=Cc2ccc(OC(F)F)cc2CC1	-5	-4
CC1Cc2ccccc2N1C(=O)CN1C(=O)NC2(CCCCCCC2)C1=O (stereo unspecified)	2	9
COc1ccc(-c2[nH]nc(N)c2C)cc1	32	1
Oc1ccc(F)cc1C1=NNC(c2ccc(Cl)cc2)C1 (stereo unspecified)	4	5
CCS(=O)(=O)c1ccc(C(=O)N(CCN2CCOCC2)c2nc3ccc(F)cc3s2)cc1	6	12
CCC(C)N(Cc1cc(NC(=O)c2ccco2)ccc1N(C)C)C(=O)c1ccccc1Cl (stereo unspecified)	19	7
CCCC(C(=O)OCC)/C(C)=N\Nc1ccccc1[N+](=O)[O-] (stereo unspecified)	9	11
CC(Nc1snc(Cl)c1C#N)c1ccc2c(c1)OCO2 (stereo unspecified)	6	11
CN(Cc1cccnc1)C(=O)c1coc(COc2cccc3cnccc23)n1	-6	-5
Cc1ccc(NC(=O)CSc2nc(=O)n(CCCN3CCOCC3)c3c2CCCC3)cc1Cl	-1	-3
Cc1nc2n(n1)C(=O)C(C(c1ccccc1)N1CC(C)CC(C)C1)S2 (stereo unspecified)	-3	-1
CSCCC(=O)N1CCCC(C(=O)c2ccc(-c3ccccc3)cc2)C1 (stereo unspecified)	-4	-3
CCCNc1ncc(CN2CCN(c3nccc4ccccc34)CC2)cn1	1	-1
COc1ccc(-c2cc(C(F)F)n3cnnc3n2)cc1	-4	-1
O=C(COc1ccc(Cl)cc1)N1CCC(c2nc(-c3ccc(Cl)cc3F)no2)CC1	-7	-4
CN1CCN(C(=O)c2ccc3ncccc3c2)CC1=O	-8	-4

Entries of single compounds, quoted from the list. Screens in order: NPYLR7 agonist max-min, NPYLR7 agonist
COc1cccc(NC(=O)N2CCN(C(c3ccc(F)cc3)c3ccc(F)cc3)CC2)c1 is listed as -16, -15
CC(Nc1snc(Cl)c1C#N)c1ccc2c(c1)OCO2 (stereo unspecified) is listed as 6, 11
CC(=O)c1ccc(S(=O)(=O)N2CCC(C(=O)N3CCCC3c3ccccc3)CC2)cc1 (stereo unspecified) is listed as 12, 0
O=C(COc1ccc(Cl)cc1)N1CCC(c2nc(-c3ccc(Cl)cc3F)no2)CC1 is listed as -7, -4
O=C(NNC(=O)c1ccccc1O)c1cc2ccccc2s1 is listed as 10, 6

Next section.
molecule	NPYLR7 agonist max-min	NPYLR7 agonist
CSc1ncc(Cl)c(C(=O)Nc2ccccc2F)n1	3	2
CCc1ncc2c(n1)CN(C(=O)c1ccc3c(c1)nnn3C)C2	-1	2
COc1ccccc1/C=C/C=C1\N=C(c2ccc(-c3ccccc3)cc2)OC1=O	-3	1
O=C(CCC(=O)N1CCc2c([nH]c3ccccc23)C1)NC(c1ccccc1)c1ccccn1 (stereo unspecified)	-11	-7
CN(C)c1ccc(/C=C2/SC(=S)N(CC(=O)O)C2=O)cc1	45*	71*
CCOc1ncccc1CN1CCC(C(=O)N2CCCC2C2CCCCC2)CC1 (stereo unspecified)	-9	-3
CCN1CCC(NC(=O)CN2CCCC2Cn2nc(C)nc2C)CC1 (stereo unspecified)	-14	0
O=C(CCC(=O)N1CCN(S(=O)(=O)c2ccc(Cl)cc2)CC1)NCC1CCCO1 (stereo unspecified)	8	1
COCCCNC(=O)c1cc2c(=O)n3ccccc3nc2s1	4	8
CN1CCC(N(C)C(=O)/C=C/c2cn(S(=O)(=O)c3ccc(Cl)s3)c3ccccc23)CC1	-18	-12
Cc1nc(N2CCN(Cc3ccccc3)CC2)nc2c1C(=O)CC(/C=C/c1ccccc1)C2 (stereo unspecified)	2	6
COc1cc(CSc2ncc(CO)n2CC(=O)NC(C)C)cc(OC)c1	3	8
CCCC1CCCN(C(=O)c2cc3ccccc3cc2O)CC1 (stereo unspecified)	2	5
Cc1cccc(Nc2ncccc2C(=O)NC2CCSC2)c1C (stereo unspecified)	-10	-5
NNc1nncc2ccccc12	-12&22&0&-23	-7&24&13&0
Cc1ccsc1-c1nc(CN(CCO)Cc2cccs2)c(C)o1	2&-1	2&3
CC(C)(C)n1nc2c(c1NC(=O)c1cccc3ccccc13)CS(=O)(=O)C2	-6	-4
C=CCn1c(SCc2ccc(C(=O)OC)o2)nnc1-c1ccc(F)cc1	4	-2
COc1ccc(C(=O)N2CCCC2(C)C(=O)O)cc1C(F)(F)F (stereo unspecified)	-4	-1
CC1(C)C2CCC1(C)C(OC(=O)C1CCCN(S(C)(=O)=O)C1)C2 (stereo unspecified)	0	5
CCn1ccnc1CN1CC[C@@H](c2ccc3c(c2)OCO3)[C@H](O)C1	8	11
COc1cccc(-c2cc(C(=O)N3CCN(C(=O)Nc4cccc(Cl)c4Cl)CC3)c(C)n2-c2ccccc2)c1	27	21
COC1CCN(C(=O)c2cccn2-c2cccc(I)c2)CC1	3	5
Nc1[nH]n(-c2ccccc2)c(=O)c1N=Nc1ccc(-c2ccccc2)cc1[N+](=O)[O-]	-18	-14
Cc1cccc(CN2CCC(C(=O)Nc3ccc(Oc4ccccc4F)cc3)CC2)n1	-1	4

Part of the list above, set out differently.
Molecule: CC1(C)C2CCC1(C)C(OC(=O)C1CCCN(S(C)(=O)=O)C1)C2 (stereo unspecified)
  NPYLR7 agonist max-min: 0 | NPYLR7 agonist: 5

Molecule: Cc1ccsc1-c1nc(CN(CCO)Cc2cccs2)c(C)o1
  NPYLR7 agonist max-min: 2&-1 | NPYLR7 agonist: 2&3

Molecule: COc1ccc(C(=O)N2CCCC2(C)C(=O)O)cc1C(F)(F)F (stereo unspecified)
  NPYLR7 agonist max-min: -4 | NPYLR7 agonist: -1

Molecule: Cc1cccc(Nc2ncccc2C(=O)NC2CCSC2)c1C (stereo unspecified)
  NPYLR7 agonist max-min: -10 | NPYLR7 agonist: -5

The listing picks up with the 5 entries that preceded the break.
molecule	NPYLR7 agonist max-min	NPYLR7 agonist
CCn1ccnc1CN1CC[C@@H](c2ccc3c(c2)OCO3)[C@H](O)C1	8	11
COc1cccc(-c2cc(C(=O)N3CCN(C(=O)Nc4cccc(Cl)c4Cl)CC3)c(C)n2-c2ccccc2)c1	27	21
COC1CCN(C(=O)c2cccn2-c2cccc(I)c2)CC1	3	5
Nc1[nH]n(-c2ccccc2)c(=O)c1N=Nc1ccc(-c2ccccc2)cc1[N+](=O)[O-]	-18	-14
Cc1cccc(CN2CCC(C(=O)Nc3ccc(Oc4ccccc4F)cc3)CC2)n1	-1	4
CCCCCC(=O)N(CC(=O)N(CCc1c[nH]c2ccccc12)Cc1ccc(Cl)c(Cl)c1)C1CC1	21	13
CCCN(Cc1ccccc1OC)C(=O)C1CC(=O)c2ccccc21 (stereo unspecified)	-5	-2
CNc1cncc(-c2ccc(CO)cc2)n1	0	3
COc1ccc(CCOC(=O)C2CCCCN2C(=O)C(OC(C)=O)c2ccccc2)cc1OC (stereo unspecified)	-14	-7
CCCC(=O)N(CCCOC)CC(=O)N(CCc1c[nH]c2ccccc12)Cc1ccc(C(F)(F)F)cc1	14	3
Cc1ccc(CN2CCC(CN(C)Cc3nccs3)CC2)o1	-2	4
O=C(NC1CCCCNC1=O)c1ccc(=O)n(Cc2ccccc2)c1 (stereo unspecified)	-10	-7

These rows are one share of the data. The share of hits here may be higher or lower than overall.
